Six1-Eya2 inh – qHTS Assay for Inhibitors of the Six1/Eya2 Interaction; Homeobox protein SIX1 (Homo sapiens) + Protein phosphatase EYA2 (Homo sapiens), …; AlphaScreen GST-Six1/His-Eya2 binding, biochemical; hits give low values; control for the full effect not named in the record; activity change, % (no concentration beside the values); 360,000 tested, 0.56% active; AID 651725, 2012; in the data active = activity change below about -65%; inconclusive = about -30% to -65%; inactive = above about -30%; note: % is set by controls: 0 for no effect and ±100 for the full control effect; compound concentration not given in the record
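AlphaScreen luminescence read after one hour at 37 °C in darkness. Pin-transferred compounds met GST-Six1 and His-Eya2 protein (5X stock 250 nM/500 nM) plus glutathione donor and Ni-chelate acceptor beads (5X, 50 ug/mL).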
TRPML1 ag – qHTS for Agonists of the Human Mucolipin Transient Receptor Potential 1 (TRPML1); Mucolipin-1 (Homo sapiens), Q9GZU1; TRPML1-expressing cells, Ca2+ dye fluorescence, FDSS; host cell line not named in the record; reference of the full effect not given here; activation, % (test concentration not listed); 410,000 tested, 0.12% active; in the data active = activation above about 50%; inconclusive = about 30% to 50%; inactive = below about 30%; note: 0% is about no effect; the text of the record puts the active cut at 80%
Target sequence (Q9GZU1 whole entry, looked up): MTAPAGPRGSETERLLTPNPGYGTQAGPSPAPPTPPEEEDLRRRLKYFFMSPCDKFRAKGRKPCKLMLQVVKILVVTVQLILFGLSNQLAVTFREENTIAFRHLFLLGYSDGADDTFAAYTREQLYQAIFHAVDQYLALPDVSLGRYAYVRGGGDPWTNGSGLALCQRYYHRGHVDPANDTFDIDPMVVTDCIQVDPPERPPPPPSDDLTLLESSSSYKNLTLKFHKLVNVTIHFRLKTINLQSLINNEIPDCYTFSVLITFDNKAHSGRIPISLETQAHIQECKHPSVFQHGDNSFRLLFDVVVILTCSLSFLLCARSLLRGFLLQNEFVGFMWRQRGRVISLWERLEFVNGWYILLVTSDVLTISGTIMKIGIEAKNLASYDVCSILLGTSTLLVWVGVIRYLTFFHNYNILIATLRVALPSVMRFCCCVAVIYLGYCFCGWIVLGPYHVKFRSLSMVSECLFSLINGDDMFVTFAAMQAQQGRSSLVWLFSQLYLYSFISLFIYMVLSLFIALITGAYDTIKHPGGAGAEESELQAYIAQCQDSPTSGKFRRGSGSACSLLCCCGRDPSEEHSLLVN
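Tetracycline-induced TRPML1-DL cells are seeded and incubated overnight before loading with a no-wash Ca2+ dye and quencher. Agonist activity is taken from the 110 s fluorescence read following compound pin-transfer on an FDSS, before EC80 54-4 challenge.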
TRPV1 potentiator – HTS Assay for Compounds that Act as Potentiators of the Vanilloid Receptor 1; TRPV1-expressing cells, Fluo-8 calcium influx, capsaicin EC20 potentiation; host cell line not named in the record; control for the full effect not named in the record; Transient receptor potential cation channel subfamily V member 1 (Homo sapiens), Q8NER1; potentiation, % at 8.33 µM; 320,000 tested, 0.02% active; active means potentiation above 80%; inconclusive means 30% to 80%; inactive means below 30%; note: 0% is about no effect
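TRPV1-expressing cells were cultured overnight at 35.5C and loaded with Fluo-8 calcium dye for 40 to 90 min at room temperature. After a 10 s baseline, compound was added and calcium influx was read kinetically for 3 min (ex 480/em 520 nm).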
D2 potentiator – Beta-Arrestin HTS for Positive Allosteric Modulators of the Human D2 Dopamine Receptor: Potentiators; D(2) dopamine receptor (Homo sapiens), P14416; DiscoveRx D2 beta-arrestin cells, luminescence, 90 min; 100% = 57 uM dopamine signal; potentiation, % (test concentration not listed); 360,000 tested, 0.23% active; AID 624464, 2012; active = potentiation of 50% or more; inconclusive = 30% to 50%; inactive = 30% or less;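 note: compound concentration not given in the record; tested on top of an EC20 dose of dopamine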
Target sequence (P14416 whole entry, looked up): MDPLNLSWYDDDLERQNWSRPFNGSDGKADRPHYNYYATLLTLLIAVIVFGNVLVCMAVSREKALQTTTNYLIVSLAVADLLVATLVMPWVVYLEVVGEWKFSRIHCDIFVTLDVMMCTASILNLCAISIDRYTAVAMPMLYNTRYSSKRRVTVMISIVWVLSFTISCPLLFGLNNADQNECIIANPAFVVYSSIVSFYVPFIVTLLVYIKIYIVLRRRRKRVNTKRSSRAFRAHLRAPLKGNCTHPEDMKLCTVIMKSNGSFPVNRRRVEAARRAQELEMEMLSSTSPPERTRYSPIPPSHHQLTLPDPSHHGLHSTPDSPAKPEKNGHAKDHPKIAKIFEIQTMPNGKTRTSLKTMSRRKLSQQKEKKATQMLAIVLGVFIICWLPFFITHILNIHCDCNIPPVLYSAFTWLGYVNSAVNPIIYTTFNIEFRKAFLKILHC
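PathHunter D2 cells, attached overnight at 37 deg C, received compound in DMSO plus dopamine at EC20 (50 nM final) for 90 min at 37 deg C. Beta-arrestin recruitment was read as luminescence after 1 h with detection reagent at ambient temperature.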
TRPML1 inh – qHTS for Inhibitors of the Human Mucolipin Transient Receptor Potential 1 (TRPML1). 390,000 tested, 0.02% active. activity change, negative = inhibition, % (test concentration not listed). TRPML1-inducible cells, Ca2+ dye fluorescence, FDSS; hits give low values; inhibition of EC80 agonist-evoked calcium signal. AID 624415, 2012. Mucolipin-1 (Homo sapiens), Q9GZU1; in the data active means activity change below about -50%; inconclusive means about -30% to -50%; inactive means above about -30%;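 note: stimulus is agonist 54-4 at its EC80 concentration; % is set by controls: 0 for no effect and ±100 for the full control effect; compound concentration not given in the record; the text of the record puts the active cut at -80%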
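Calcium fluorescence in TRPML1-DL cells induced overnight with Tet: a 110 s read after compound pin addition, then a 110 s antagonist read after challenge with 54-4 at 4 uM final (EC80).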
CtBP-E1A inh – qHTS Assay for Inhibitors of the CtBP/E1A Interaction; CtBP / adenovirus E1A interaction (AlphaScreen); AlphaScreen GST-E1A/His-CtBP binding, 1536-well; hits give low values; control for the full effect not named in the record; activity change, % (no concentration beside the values); 340,000 tested, 0.49% active; AID 651724, 2012; in the data active means activity change below about -65%; inconclusive means about -30% to -65%; inactive means above about -30%; note: % is set by controls: 0 for no effect and ±100 for the full control effect; compound concentration not given in the record
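Steps: dispense buffer (Tris pH 8.0, NaCl 300 mM, TCEP 1 mM, BSA, Tween 20); add 5X protein mix (GST-E1A, His-CtBP, 125 nM each); pin 23 nL compound; 2 h at 37 °C, dark; add 5X beads (50 ug/mL); 1 h; read.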
An asterisk follows results filed as active; ? = inconclusive; . = not tested or not shown.

Results follow in this order: Six1-Eya2 inh, TRPML1 ag, TRPV1 potentiator, D2 potentiator, TRPML1 inh, CtBP-E1A inh
CCOc1ccc(C(=O)N[C@H](C(=O)NNC(=O)c2cccs2)C(C)C)cc1
→ -2, 0.0, ., -8, -1, 5
CCn1c(SC(C)C(=O)Nc2nccs2)nnc1-c1ccncc1 (stereo not drawn)
→ 6, 0.0, -1, 5, -6, 2
CC(=O)NC(CC(=O)OCC(=O)N1CCN(S(=O)(=O)c2ccc(C)cc2C)CC1)c1ccccc1 (stereo not drawn)
→ 9, -0.1, -2, -12, -18, .
CCCc1cc(=O)n2[nH]cnc2n1
→ 4, 0.6, 0, -5, 7, -6
Nc1ccccc1C(=O)NNC1=C(C(=O)C(F)(F)F)CCC1
→ -4, 0.2, -4, -7, -15, -7
COc1ccc(CCC(=O)NC(C)C)cc1
→ 0, -0.3, 8, 14, -11, 9
COc1ccc(S(=O)(=O)NC2CC2)cc1Br
→ 1, 0.1, -2, -4, 6, 13
COCCn1c(SCC(=O)Nc2cccc(F)c2)nc2c(c1=O)SCC2
→ 2, 1.0, -4, -2, -1, 0
COc1ccc(NC(=O)Cn2cnc3sc(C)c(S(=O)(=O)N4CCOCC4)c3c2=O)c(OC)c1
→ 14, -0.8, -1, 1, -23, -16
O=C(CSc1nc(COc2ccccc2)nc2ccccc12)NC1CCCC1
→ 0, -0.2, 2, -2, -27, -26
COC(=O)C1=C(C)N=C2SC(C)C(=O)N2C1/C=C/c1ccccc1 (stereo not drawn)
→ -5, 1.0, -11, -7, 20, -4
CCNC(=O)COC(=O)c1cc(S(=O)(=O)N2CCCCC2)ccc1C
→ -1, -0.4, 12, -6, 5, 6
O=[N+]([O-])c1ccc(Cl)c(-c2ccc(/C=N/n3cnnc3)o2)c1
→ -8, 1.7, 8, -2, 5, -19
O=C(NCCO)C(=O)NCC1OCCCN1S(=O)(=O)c1cc(F)ccc1F (stereo not drawn)
→ 9, 0.1, 20, 1, -26, 4
CCN1CCN(C(=O)C(C)Nc2ccc(OC)cc2OC)CC1 (stereo not drawn)
→ -9, -0.6, 6, 4, 0, -3
NC(=O)C1(Nc2ccc([N+](=O)[O-])cc2)CCCC1
→ 5, -0.5, ., -8, 4, 5
O=C(Nc1n[nH]c(=S)s1)c1ccc2ccccc2c1
→ -4, 0.0, 13, -6, 2, -23
COc1ccc(/C(C)=N/Nc2nc3ccccc3nc2C)cc1OC
→ ?, -0.7, 7, -1, 8, -19
COC(=O)c1scc(C)c1-n1ccc(C(=O)C(=O)N(C)C)c1
→ 8, 1.3, 2, -2, 0, 2
O=C(COc1ccc(F)cc1)NCCNC(=O)COc1ccc(F)cc1
→ 3, -0.2, ., -4, 14, 5
CCOCCCn1c(=S)[nH]c2cc(C(=O)N3CCN(C)CC3)ccc2c1=O
→ 4, -0.6, 13, 3, 4, -7
COc1ccc(S(=O)(=O)N2CCOCC2)cc1NC(=O)C1COc2ccccc2O1 (stereo not drawn)
→ 0, -0.5, 18, 17, -3, -16
COc1cc(C(=O)NCc2nnc(SCC(=O)N3CCOCC3)o2)cc(OC)c1OC
→ 1, 3.5, -22, -4, 8, 7
CN(C)C(=O)CSc1nnc(Cc2ccc3c(c2)OCO3)o1
→ -2, 0.7, 5, -12, -14, .
CN1CC(=O)NC1=NC(=O)c1cc(F)c(F)cc1Cl
→ -2, 0.8, -3, 7, -17, -2
CCC(=O)OCC(=O)Nc1cc(S(=O)(=O)N(C)C)ccc1Cl
→ 7, -0.2, -1, -6, 26, -2
Cn1cnc(S(=O)(=O)N2CCCCC2c2cc(C(=O)Nc3ccc(F)c(Cl)c3)no2)c1 (stereo not drawn)
→ 5, 0.2, ., -8, ., 1
Cc1ccc(S(=O)(=O)N2CCC3(CC2)OCCO3)c(C)c1
→ -2, 0.2, -6, -6, -5, 1
Cc1ccc2nc(-c3ccsc3)c(NC3CCCC3)n2c1
→ 11, 1.6, -11, -6, -18, 6
COC[C@@H]1CCCN1c1ccc2c(c1)O[C@@H](COCc1ccccc1)CN([C@H](C)c1ccccc1)S2(=O)=O
→ 1, 0.3, ., ., ., -20

An excerpt of these results, as tab-separated lines:
SMILES	Six1-Eya2 inh	TRPML1 ag	TRPV1 potentiator	D2 potentiator	TRPML1 inh	CtBP-E1A inh
O=C(CSc1nc(COc2ccccc2)nc2ccccc12)NC1CCCC1	0	-0.2	2	-2	-27	-26
COC(=O)C1=C(C)N=C2SC(C)C(=O)N2C1/C=C/c1ccccc1 (stereo not drawn)	-5	1.0	-11	-7	20	-4
CCNC(=O)COC(=O)c1cc(S(=O)(=O)N2CCCCC2)ccc1C	-1	-0.4	12	-6	5	6

New compounds follow:
Results follow in this order: Six1-Eya2 inh, TRPML1 ag, TRPV1 potentiator, D2 potentiator, TRPML1 inh, CtBP-E1A inh
CCCCCCC(NC(=O)Cc1ccc2ccccc2c1)C(=O)O (stereo not drawn)
→ 0, -0.3, ., ., -5, -1
O=C(CSc1nnc(-c2ccco2)n1CC1CCCO1)c1ccccc1 (stereo not drawn)
→ -3, -0.3, -14, 20, 4, 2
CCN(CC)S(=O)(=O)c1ccc(-c2nnc(SCC(=O)c3ccc(OC)cc3)o2)cc1
→ 21, 1.1, -12, 0, -17, 50
COc1ccc(-c2cc(C(=O)N3CCc4ccccc4C3)no2)cc1OC
→ -5, 2.0, -1, 13, 2, -2
CCNC(=O)C1(C)CCCN(CCOc2ccc(OC)cc2)C1 (stereo not drawn)
→ 1, -0.3, ., -6, ., 9
CCc1ccc(N2C(=O)C(Cl)=C(Nc3ccc(C(=O)N4CCCC4)cc3)C2=O)cc1
→ -2, 0.4, 10, 2, -18, -3
COc1ccc2nc(NC(=O)Cc3cccs3)sc2c1
→ -3, -0.2, -1, -16, 2, -2
COC(=O)c1ccccc1S(=O)(=O)NNC(=O)c1ccccc1-n1cccc1
→ -2, -0.2, 4, -10, -8, 3
CCOC(=O)C1CCN(C(=O)Nc2ccc3nc(C)c(C)nc3c2)CC1
→ 0, -0.2, 7, -3, 6, -5
Cc1cc(=O)n2[nH]c(-c3ccco3)nc2n1
→ -1, 0.9, 6, -8, 0, 10
O=C(c1ccco1)c1cn(CC(=O)N2CCCC2)c2ccccc12
→ 6, -0.4, -7, -8, 7, -2
COc1ccc(C2C(C#N)=C(C)NC3=C2S(=O)(=O)c2ccccc23)cc1 (stereo not drawn)
→ 3, 0.8, -5, -16, 8, -5
CCc1cc(=O)oc2cc(OCC(=O)NCc3ccccn3)ccc12
→ 1, -0.6, 10, -6, 11, 0
CC(OC(=O)C1CC=CCC1C(N)=O)C(Cl)=C(Cl)Cl (stereo not drawn)
→ 1, 0.7, -1, -4, -12, 3
CN(CC(=O)NCC1CCCO1)S(=O)(=O)c1ccc2ccccc2c1 (stereo not drawn)
→ -1, -0.4, ., -7, 12, 5
O=C(Nc1ccc(S(=O)(=O)N2CCOCC2)cc1)c1cccc(Br)c1
→ 4, -0.4, -22, -4, -6, 4
COCCNC(=S)N(CCc1c(C)[nH]c2ccc(F)cc12)Cc1cccnc1
→ -2, ., ?, -6, ., -5
COc1ccc(N(CC(=O)N2CCN(c3ccc(Cl)cc3)CC2)S(=O)(=O)c2c(C)n[nH]c2C)cc1
→ -7, 1.0, 26, -2, 18, -14
COc1cc(CC(NC(C)=O)C(=O)NC2CCN(C(=O)Nc3ccccc3C)CC2)cc(OC)c1 (stereo not drawn)
→ -7, -0.4, 5, -3, -3, 5
CSc1ncccc1-c1nc2ccccc2[nH]1
→ -4, -0.2, 9, -1, 10, 8
c1ccc(Cn2nnc3c(N4CCCCCC4)ncnc32)cc1
→ 15, -0.6, -16, 4, -4, 6
COc1ccc(NC(=O)C2CC(=O)N(c3cccc(C)c3C)C2)cc1 (stereo not drawn)
→ 6, 0.0, 7, -9, 19, -1
O=C1Nc2cccnc2Sc2ccccc21
→ -3, -0.5, -7, 8, 7, 1
COc1ccccc1C(=O)NCCC(=O)Nc1ccc(S(=O)(=O)N2CCC(C)CC2)cc1
→ -1, 1.1, -2, -1, -5, -15
Cc1onc(-c2ccccc2)c1C(=O)Nc1sccc1C#N
→ -3, 1.1, 6, 0, -5, 1
N=c1c2c3c(sc2ncn1CCN1CCOCC1)CCCCC3
→ 5, 0.1, 8, 12, -15, -7
CC(C)(C)c1ccc(/C=N/NC(=O)C[n+]2ccccc2)cc1
→ 6, 1.5, -2, -16, -8, -8
CCN(C(=O)C=Cc1ccco1)c1ccccc1
→ 3, 1.2, ., -3, -12, -7
COc1ccc(-c2ccc(=O)n(CC(=O)NCC3COCCO3)n2)cc1 (stereo not drawn)
→ 4, 1.3, 13, -3, 0, -8
O=C(Cn1ncc2c(=O)oc3ccccc3c21)N1CCCN(Cc2ccccc2F)C1
→ 5, 0.2, 3, 0, -11, -5

The listing continues.
Results follow in this order: Six1-Eya2 inh, TRPML1 ag, TRPV1 potentiator, D2 potentiator, TRPML1 inh, CtBP-E1A inh
CCOC(=O)N1CCC(NS(=O)(=O)c2ccc(C)cc2)CC1
→ -22, -0.3, 1, 20, 6, 0
O=C(CN1CCN(S(=O)(=O)c2ccc(Cl)cc2)CC1)Nc1ccc(N2CCOCC2)cc1
→ 2, -0.4, 8, 26, 4, -1
O=[N+]([O-])c1cccnc1N1CCC(c2cc(-c3ccc(Cl)cc3)n[nH]2)CC1
→ ?, -0.2, -19, -10, -12, -14
Cc1nn(C2CCS(=O)(=O)C2)c(C)c1CN(C)C(=O)c1ccccc1 (stereo not drawn)
→ 5, -0.6, 6, 8, -7, .
O=C(COC(=O)Cc1n[nH]c(=O)c2ccccc12)NNC(=O)c1ccc(Cl)cc1
→ -4, -0.6, -2, -52, 53, 0
Cc1c(NC(=O)COC(=O)c2ccccc2O)c(=O)n(-c2ccccc2)n1C
→ 0, -0.3, ., -15, 0, 2
O=C1C(=O)N(CCN2CCOCC2)C(c2ccncc2)/C1=C(/O)c1ccc2c(c1)OCO2 (stereo not drawn)
→ 1, -0.4, 19, -2, 2, -1
O=C(CCNC(=O)C1CCN(S(=O)(=O)c2ccc(F)cc2)CC1)Nc1ccccc1
→ 4, -0.2, 6, 2, -2, 1
O=C(COC(=O)c1cccc(S(=O)(=O)N2CCCC2)c1)NCc1ccccc1
→ 2, 0.0, -14, -4, 5, 0
CCn1c(C(C)C)n[nH]c1=S
→ 3, -0.7, 2, -4, 1, 9
O=C(Cc1ccc(S(=O)(=O)N2CCOCC2)s1)Nc1cc(C(F)(F)F)cc(C(F)(F)F)c1
→ 4, 1.2, -18, -2, 2, -11
CCOC(=O)c1cc(C)nc(Sc2ccc(C)cc2)c1C#N
→ 24, 3.3, -8, -10, 66, 19
C[N+](C)(C)C[C@H](O)CC(=O)O
→ 5, -0.1, ., -8, 21, 10
COc1cccc(-n2c(COc3ccccc3C)nnc2SCC(=O)O)c1
→ 5, 0.1, 17, -11, 45, 11
Cc1ccc(-c2nnc(-c3cccc(Br)c3)o2)cc1
→ 5, 4.1, -3, -19, 5, 5
